Screens (PubChem)
VACV mCherry inh – qHTS for Stage-Specific Inhibitors of Vaccinia Orthopoxvirus: mCherry Reporter Primary qHTS; hit rate 0.63% among 310,000; Potency, µM (highest dose often 36.5 µM), for inactives: at the highest dose activity change, negative = inhibition, most hits filed as inhibitors; Vaccinia virus mCherry reporter infection, fluorescence; about a quarter of the inactives have no number; active = well fitted inhibition curve with a large enough effect; inconclusive = small, poorly fitted or top-dose-only effect; inactive = no such curve, though single readings can be large or run the other way; tested in A549 cells; note: nearly all actives have a fitted effect of over 35% in size; inactives centre near -10
VACV Venus inh – qHTS for Stage-Specific Inhibitors of Vaccinia Orthopoxvirus: Venus Reporter Primary qHTS | Vaccinia virus Venus reporter expression, fluorescence | Potency, µM (doses to about 36.5 µM), for inactives: at the top dose activity change, negative = inhibition, actives largely listed as inhibitors | hit rate 0.46% among 330,000 | AID 720580, 2013; active means well fitted inhibition curve with a large enough effect; inconclusive means small, poorly fitted or top-dose-only effect; inactive means no such curve, though single readings can be large or run the other way; tested in A549 cells; note: nearly all actives have a fitted effect of over 30% in size; inactives centre near -10
Numbers without * were called inactive; i = inactive; ? = inconclusive; . = not tested or not shown; & = joins results of further samples; [ ] = remark or other dose. % is set by controls: 0 for no effect and ±100 for the full control effect; potency is the fitted concentration of half-maximal effect. No enrichment for hits; overall some 0.82% were active at least once.

Every second line gives: VACV mCherry inh, VACV Venus inh
- OC(CNCCCCNCC(O)C(F)(F)F)C(F)(F)F (configuration not stated)
 : i, -13%
- O=C(Nc1cccs1)NC1CCCC1
 : ., -14%
- COC(=O)c1nc(NC(=S)NC(=O)c2cccs2)sc1C
 : i, -10%
- COc1cccc(OC)c1C(=O)N1CCN(S(=O)(=O)c2ccc(C)cc2)CC1
 : ., -14%
- Cc1nn(-c2ccccc2)c(C)c1/C=C/C(=O)OC(C)C(=O)Nc1ncc(Cl)cc1Cl (configuration not stated)
 : 42%[activator], -10%
- CCOCCCNC(=S)N1CCC(NC(=O)C23CC4CC(CC(C4)C2)C3)CC1
 : i, -16%
- COc1ccc(OC)c(NC(=O)CSc2nc(=O)n(CCN(C)C)c3c2CCC3)c1
 : -9%[7.34 µM], -2%[7.34 µM]
- c1ccc2nc(N3CCN(Cc4ccc5c(c4)OCO5)CC3)cnc2c1
 : -15%, -6%
- O=C1CC2(CCCC2)C(=O)N1CN1CCN(S(=O)(=O)c2cc(F)ccc2F)CC1
 : 0%, -7%
- CC(=O)N(c1ccc(C)cc1)S(=O)(=O)c1ccc(Cl)cc1
 : ?, ?
- CCCCCCn1c(O)c(C=NCCN2CCCCC2)c(=O)[nH]c1=O
 : ., -12%
- Cc1ccc(-c2nc(C#N)c(NCCc3ccccn3)o2)cc1
 : ., -5%
- c1ccc(CCc2nn3c(C4COc5ccccc5O4)nnc3s2)cc1 (configuration not stated)
 : -9%, -18%
- O=C(Nc1cccc(C(F)(F)F)c1)c1noc2c1CCc1ccccc1-2
 : -7%, 0%
- Brc1ccc(C2=CC(c3cccs3)n3ncnc3N2)cc1 (configuration not stated)
 : ?, -2%
- COc1ccc(CN2C(=O)COc3ccccc32)cc1
 : -1%, -8%
- O=C1NC(=O)N(CCc2ccc(F)cc2)C(=O)/C1=C/C=C/c1ccccc1
 : -1%, 0%
- COc1cc(NC(=O)COCc2cc(-c3ccc(F)cc3)on2)cc(OC)c1OC
 : -17%, -9%
- Cn1c(SCC(=O)N2CCCc3ccccc32)nnc1-c1ccco1
 : -12%, -7%
- CN1CCCCCC1C(=O)N1CCC(N2CCC(C(=O)N3CCOCC3)CC2)CC1 (configuration not stated)
 : i, -1%
- COCCCn1c(SCc2nnc(-c3ccc(OC)c(OC)c3)o2)nnc1-c1ccncc1
 : i, -19%
- COc1ccc([C@@H]2[C@@H](C(=O)C(C)(C)C)N3N=Cc4ccccc4[C@@H]3C23C(=O)OC(C)(C)OC3=O)cc1OC
 : i, -3%
- CC(C)C[C@H]1CNC(=S)N1CC1CCN(CCC2CCCC2)CC1
 : i, -9%
- COC(=O)c1ccc(C(=O)N2CCCC(N3CCN(c4ccccc4)CC3)C2)nc1 (configuration not stated)
 : -2%, -15%
- NS(=O)(=O)c1ccc(CCNC(=O)CNC(=O)C2CCCCC2)cc1
 : ., -17%
- O=C(/C=C/c1ccco1)NCCCN1CCN(CCCNC(=O)/C=C/c2ccco2)CC1
 : 0%, -23%
- COCCn1cnc2c1c(=O)n(CC(=O)OCC#N)c(=O)n2Cc1ccccc1
 : -2%, -14%
- Cc1cccc(-c2noc(-c3ccc(NCc4ccccc4)c([N+](=O)[O-])c3)n2)c1
 : -4%, -1%
- C=CCSc1nnc(NC(=O)CSc2nc3ccccc3[nH]2)s1
 : -4%, -10%
- O=C(c1ccc(Cl)c(S(=O)(=O)N2CCOCC2)c1)N1CCN(c2ccccc2)CC1
 : i, -16%

By substructure: the entries above containing an NH in an aromatic ring (two)
Every second line gives: VACV mCherry inh, VACV Venus inh
- CCCCCCn1c(O)c(C=NCCN2CCCCC2)c(=O)[nH]c1=O
 : ., -12%
- C=CCSc1nnc(NC(=O)CSc2nc3ccccc3[nH]2)s1
 : -4%, -10%

Other compounds.
Every second line gives: VACV mCherry inh, VACV Venus inh
- COc1ccc(/C(C)=N/NC(=O)CCC(=O)Nc2ccc(Cl)cc2Cl)c(OC)c1
 : -5%, -17%
- CN(C)c1ccc(/C=C2/C[N+](C)(C)C/C(=C/c3ccc(N(C)C)cc3)C2=O)cc1
 : 13%, 278%[activator]
- C=CCNC(=O)COC(=O)c1cc(S(=O)(=O)N2CCCCC2)ccc1Cl
 : -8%, -5%
- CC(=O)Nc1ccc(Nc2ncnc3sc4c(c23)CCCC4)cc1
 : -29%, -25%
- Cc1cc(=O)[nH]c2ccc(S(=O)(=O)N3CCOCC3)cc12
 : i, -6%
- CCCC1(c2ccccc2)NC(=O)N(CCN2C(=O)c3ccccc3C2=O)C1=O (configuration not stated)
 : ., -10%
- CCn1c(-c2ccccc2F)nc2cc(NC(C)=O)cc(C(=O)N(C)Cc3c(C)nc4ccccn34)c21
 : -6%, 0%
- CCOc1cccc(/C=N/NC(=O)CC2C(=O)NN=C2C)c1O (configuration not stated)
 : -4%, 8%
- COc1ccc(-c2cc(C(F)(F)F)nc(SCCC(=O)Nc3cccc(O)c3)n2)cc1
 : -11%, -10%
- CN1CCN(c2ccc([N+](=O)[O-])c(Sc3nc4ccccc4[nH]3)c2)CC1
 : -25%, -13%
- O=C(CC1C(=O)NCCN1Cc1ccc(-c2ccccc2)cc1)NCc1ccncc1 (configuration not stated)
 : i, -8%
- Cc1ccc(OCCN(C)C)c([N+](=O)[O-])c1
 : -11%, -15%
- COC(=O)C1=C(c2cccc(OCc3ccccc3)c2)C[C@@H]2CC[C@H]1N2C(=O)NCc1ccc(F)cc1
 : -20%, ?
- Cc1ccc(C(C)C)cc1-n1nnc(-c2cccc(Cc3ccc4ccccc4c3)c2)c1C(C)O (configuration not stated)
 : ?, -26%
- Cc1cccc(N2CCN(C(=O)CCc3c(C)nc4ncnn4c3C)CC2)c1C
 : -3%, -5%
- Cn1c(N2CCOCC2)nc(-c2ccccc2)c1-c1ccccc1
 : ?, -5%
- O=C(Cn1nc(Cl)nc1Cl)c1ccc2c(c1)OCCO2
 : -9%, -5%
- CS(=O)(=O)N(CC(=O)Nc1ccccc1Sc1ccccc1)c1cccc(Br)c1
 : ?, ?
- Cc1oc2ccc(O)c(CN3CCCC3)c2c1C(=O)Nc1ccccc1
 : 2%, 6%
- Cc1ccc(Cl)cc1NC(=S)N(Cc1ccccc1)Cc1cccnc1
 : -12%, -18%
- O=C(NCc1nnc(SCC(=O)N2CCC(Cc3ccccc3)CC2)o1)c1ccccc1F
 : ?, -17%
- Cc1cc(OCC(O)CN2CCN(C)CC2)ccc1C(C)C (configuration not stated)
 : -23%, 2%&-21%
- O=C(Nc1cccc(-c2cn3ccccc3n2)c1)c1cccs1
 : 2%, 2%
- Cc1ccc(CSCCNC(=O)CCSc2ccccc2)cc1
 : 0%, -10%
- COc1ccc(NC(=O)C[C@H]2C(=O)N(CCc3ccccc3)C[C@@H]2c2ccc(OC)cc2)cc1
 : -18%, -21%
- COc1ccc(N2CCN(Cc3nnc(-c4ccc5c(c4)OCO5)o3)CC2)cc1
 : -12%, -13%
- COCCCNc1nc2c(S(=O)(=O)c3ccccc3)nnn2c2ccc(Cl)cc12
 : -7%, -14%
- CCOc1ccc(/C=C/C(O)=C2/C(=O)N(C)C3(C)CC2c2ccccc2O3)cc1OC (configuration not stated)
 : ?, -28%
- CCC1=NN(C(=O)c2ccc(C)cc2)C(O)(c2ccc(Br)cc2)C1 (configuration not stated)
 : -14%, -8%
- CCc1ccccc1NC(=O)c1sc2nc(C)cc(C)c2c1N
 : -1%, -9%

Every second line gives: VACV mCherry inh, VACV Venus inh
- CC(=O)Oc1ccc(C(=O)Nc2cccc(C(=O)c3cccc(NC(=O)c4ccc(OC(C)=O)cc4)c3)c2)cc1
 : -21%, -23%
- CC(C)[C@H](NC(N)=O)C(=O)Nc1cccc(S(=O)(=O)NC2=NCCCCC2)c1
 : i, -14%
- COC(=O)c1sccc1NC(=O)CSc1cccc(Cl)c1Cl
 : -1%, 19%
- S=C(NCc1ccncc1)Nc1ccc(Br)cc1
 : -2%, -10%
- Cc1ccccc1CNS(=O)(=O)c1ccc2c(c1)OCCO2
 : -5%, -21%
- CCOC(=O)N1CCN(C(=O)CSCC(=O)Nc2nc(-c3ccc(-c4ccccc4)cc3)cs2)CC1
 : ?, ?
- CCCN1C(=O)c2cc(C(=O)Nc3ccccc3CC)ccc2C1O (configuration not stated)
 : 34%[activator], -2%
- COc1ccc(C2=CC(=O)C[C@H](c3ccc(OC)c(OC)c3)C2)cc1
 : -19%, -19%
- O=C(NC(=S)Nc1cccc(O)c1)C12CC3CC(CC(C3)C1)C2
 : -8%, -25%
- O=C(C[n+]1ccccc1Cl)c1ccccc1
 : -11%, -22%
- COc1ccccc1OCCn1cc(/C=C(\C#N)C(=O)NCc2cccs2)c2ccccc21
 : -2%, -23%
- CCOC(=O)c1c(NC(=O)COc2cccc(C)c2C)sc2c1CCC(CC)C2 (configuration not stated)
 : -8%, 14%
- CCN(C[C@H]1N[C@@](Cc2ccccc2)(C(=O)OC)[C@H]2C(=O)N(Cc3ccccc3)C(=O)[C@@H]12)C(=O)Nc1ccc(F)cc1
 : -15%, ?
- C/C(CC(=O)Nc1ccccn1)=N\NC(=O)c1ccc([N+](=O)[O-])cc1Cl
 : 10%, 2%
- N#CCCn1cc(/C=N/NC(N)=S)c(-c2ccc(Br)cc2)n1
 : -29%, ?
- CCN1C(=O)S/C(=C/c2ccsc2)C1=O
 : -13%, -5%
- COc1ccccc1C=NNC(=O)c1ccccc1OCCOc1ccccc1
 : ?, ?
- Cc1ccc(-c2nc(C3CCN(S(=O)(=O)c4ccc(C(F)(F)F)cc4)CC3)no2)cc1
 : -2%, -9%
- COCc1nnc(NC(=O)c2ccc(Cl)cc2[N+](=O)[O-])s1
 : i, -9%
- Cc1csc(NC(=O)Cc2ccccc2Cl)n1
 : -1%, 6%
- Cc1onc(-c2ccccc2)c1C(=O)OCC(=O)N(C)c1ccccc1
 : i, -14%
- CCCn1c(SCC(=O)c2ccc(OC)c(OC)c2)nc2c1c(=O)n(C)c(=O)n2C
 : ., -6%
- CSc1ccccc1-c1nnc(NC(=O)c2ccc3c(c2)OCCO3)o1
 : -13%[7.34 µM], -5%[7.34 µM]
- CC(C)[C@H](NC(=O)OCc1ccccc1)C(=O)OCC(=O)NCc1ccco1
 : i, 5%
- CC(C)(C)OC(=O)N1CCC(CC2CC(c3ccccc3)=NO2)(C(=O)NCc2ccccc2)CC1 (configuration not stated)
 : 1%, -19%
- COc1cccc(N2CCN(C(=O)c3cccc(NC4=NC5CS(=O)(=O)CC5S4)c3)CC2)c1 (configuration not stated)
 : -2%, 6%
- CCOC(=O)CNc1ccc2c(c1)OCO2
 : -7%, -3%
- COc1cc(NC(=O)C(C)(C)C)c(C(=O)OCC(=O)Nc2cc(C)on2)cc1OC
 : -9%, -7%
- COc1ccc(C2CC(c3cccs3)=NN2C(=O)CSc2nc3c(cnn3-c3ccccc3)c(=O)[nH]2)cc1 (configuration not stated)
 : 87%[activator], 31%[activator]
- CCOC(=O)[C@]12CCCC=C1N(Cc1ccco1)C(=O)[C@H](CC(=O)NCCC(C)C)C2
 : -13%, -1%

Every second line gives: VACV mCherry inh, VACV Venus inh
- Cc1cccc2c1NC(C)CC2C (configuration not stated)
 : -6%, -10%
- CC1(C)CC(=O)C/C(=N\NC(=O)C2C3CCCCC32)C1 (configuration not stated)
 : -7%, -2%
- O=C(Cn1cnc2ccccc21)c1ccc(Br)cc1
 : -2%, 0%
- CCn1ncc(C(=O)Nc2ccc(F)cc2)c1C
 : 3%, 6%
- Cc1sc(NC(=O)c2cccc([N+](=O)[O-])c2)c(C(N)=O)c1-c1ccc(C(C)(C)C)cc1
 : -19%, ?
- C[C@H](NC(=O)C1CC(=O)N(c2ccc3c(c2)OCO3)C1)C(=O)NC1CCCC1 (some centres not stated)
 : i, -13%
- Cc1c(C(=O)Nc2c(C)n(C)n(-c3ccccc3)c2=O)oc2ccccc12
 : 4%, 1%
- CCc1ccc(NC(=O)c2cccc(C(=O)Nc3ccc(CC)cc3)n2)cc1
 : i, -19%
- Cc1ccc2[nH]c3c(c2c1)CCCC3=O
 : -7%, -25%
- Cc1cc(C)c(NC(=O)c2cc(S(=O)(=O)N3CCCC3)cn2C)c(C)c1
 : -17%, -7%
- COCCCN(C(=O)C1=COCCO1)c1c(N)n(Cc2ccccc2)c(=O)[nH]c1=O
 : i, -4%
- O=S(=O)(NCc1cn2ccsc2n1)c1ccc(Oc2ccccc2)cc1
 : ., ?
- COc1ccccc1N1CCN(C(=O)CCn2nc(C)c(S(=O)(=O)N3CCCC3)c2C)CC1
 : -9%, 5%
- COc1ccc(CNC(=O)Nc2nc(C(N)Cc3ccc(Cl)cc3)cs2)cc1 (configuration not stated)
 : -2%, -26%
- COc1ccc(CCN(C)C(=O)COc2cccc(-n3cnnn3)c2)cc1OC
 : -5%, 8%
- O=C(COC(=O)/C=C/c1ccc(F)cc1)Nc1ccc(Cl)cn1
 : 3%, -9%
- NC(=O)[C@@H]1CCCNc2c(I)cc([N+](=O)[O-])cc2C(=O)N[C@@H](CO)C(=O)NCC(=O)N1
 : -23%, -7%
- Cc1cccc2nc(CNC(=O)CN3Cc4ccccc4OC(c4ccccc4F)C3)cn12 (configuration not stated)
 : -3%, 4%
- Cc1nc(CN2CCN(C(=O)c3ccc(Br)cc3)CC2)cs1
 : ., -11%
- Cc1ccc(S(=O)(=O)NNC2=NCCCCC2)cc1
 : -13%, -3%
- O=C(NC1CCNCC1)C1CC1
 : i, 1%
- CCc1nc2ccc(C(=O)Nc3cccc(OC)c3)cn2c1N(CC)CCOC
 : -1%, -6%

Single records, from the list above:
Listed for CCc1nc2ccc(C(=O)Nc3cccc(OC)c3)cn2c1N(CC)CCOC : VACV mCherry inh: -1%; VACV Venus inh: -6%
Listed for Cc1ccc(OCCN(C)C)c([N+](=O)[O-])c1 : VACV mCherry inh: -11%; VACV Venus inh: -15%
